Assay outcomes from PubChem BioAssay.
Yeast UUG start: modulators of yeast start codon fidelity, primary screen, whole organism, S. cerevisiae, single point, plate reader | activity score, % at 18.7 µM | S. cerevisiae UUG-firefly luciferase reporter, luminescence/redox ratio | 350,000 compounds, 0.13% hits;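 active = replicate mean at a twofold rise or more, about +100% in these data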;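 also: firefly luciferase made from a UUG start codon reports start codon fidelity; reporter light over untreated wells divided by growth signal over untreated wells; some hits fall short of that in this replicate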
Env fusion inh: inhibitors of HIV-1 Env-driven cell-cell fusion, primary screen, HeLa-JRFL effector, CEM21 target cells, luciferase; inhibition, % at 12.3 µM; 360,000 compounds, 1.1% hits;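 active = mean replicate inhibition score of at least 50 and every replicate individually at or above 50; inconclusive = only one of the two criteria met; inactive = mean below 50 and not all replicates reaching 50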;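 also: 0% = plate neutral controls and 100% = maraviroc near 300 nM; one replicate is shown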
Numbers without * were called inactive; ? = inconclusive; [ ] = dose if it differs, or a comment. This is a subset; the hit share may differ from the screen's.

SMILES	Yeast UUG start	Env fusion inh
CS(=O)(=O)N1[C@H](C#N)[C@H](c2ccc(C#CC3CCCCC3)cc2)[C@@H]1CO	-2	-25[16.7 µM]
C[C@@H]1CN([C@@H](C)CO)C(=O)c2cc(NC(=O)Cc3ccccc3)ccc2O[C@@H](C)CCCCO[C@@H]1CN(C)CC1CCCCC1	10	-55[16.7 µM]
C[C@@H]1CN([C@@H](C)CO)C(=O)Cc2cc(NS(=O)(=O)c3ccc(Cl)cc3)ccc2O[C@H]1CN(C)C(=O)Nc1cccc2ccccc12	18	15[16.7 µM]
CC(C)NC(=O)N(C)C[C@@H]1OCCCC[C@@H](C)Oc2ccc(NS(=O)(=O)c3cn(C)cn3)cc2C(=O)N([C@H](C)CO)C[C@H]1C	-16	1[16.7 µM]
C[C@H]1CN([C@@H](C)CO)C(=O)c2cc(NC(=O)CCCN(C)C)ccc2O[C@H]1CN(C)C(=O)Nc1ccc(F)cc1	5	-7[16.7 µM]
CNC[C@H]1Oc2cc(C#CC(C)(C)O)ccc2S(=O)(=O)N([C@H](C)CO)C[C@@H]1C	-29	-7[16.7 µM]
C[C@H](CO)N1C[C@H](C)[C@H](CN(C)C(=O)Nc2ccc3c(c2)OCO3)OCCCC[C@H](C)Oc2ccc(NC(=O)C3CCCCC3)cc2C1=O	-11	-50[16.7 µM]
C[C@@H]1CN([C@H](C)CO)C(=O)c2cccc(NC(=O)c3ccc(-c4nccs4)cc3)c2O[C@H]1CN(C)Cc1ccc(C(=O)O)cc1	2	11[16.7 µM]
CCC(=O)N[C@@H]1CC[C@H](CCn2cc(C3CC3)nn2)O[C@H]1CO	-8	-38[16.7 µM]
O=C(N[C@H]1CC[C@@H](CCn2cc(C3(O)CCCC3)nn2)O[C@H]1CO)c1ccccc1F	1	13[16.7 µM]
COCCNC(=O)C[C@@H]1CC[C@@H](NS(=O)(=O)c2ccc(C)cc2)[C@H](CO)O1	-9	3[16.7 µM]
COCC(=O)Nc1ccc2c(c1)C(=O)N(C)C[C@H](OC)[C@H](C)CN(CCC(F)(F)F)[C@H](C)CO2	17	-7[16.7 µM]
O=C(NCC[C@@H]1CC[C@@H](NC(=O)c2ccncc2)[C@H](CO)O1)Nc1ccc(Cl)cc1	-9	-4[16.7 µM]
C[C@@H]1CN([C@H](C)CO)C(=O)Cc2cc(NC(=O)Nc3ccc(C(F)(F)F)cc3)ccc2O[C@H]1CN(C)Cc1ccc(C(=O)O)cc1	3	-11[16.7 µM]
Cc1ccc(S(=O)(=O)N[C@H]2CC[C@H](CCNC(=O)C3CCCC3)O[C@@H]2CO)cc1	30	8[16.7 µM]
COc1ccc(NC(=O)Nc2cccc3c2O[C@H](CN(C)C(=O)Nc2cccc4ccccc24)[C@H](C)CN([C@@H](C)CO)C3=O)cc1	0	-6[16.7 µM]
CC(C)NC(=O)N(C)C[C@@H]1Oc2ncc(C#CC(C)(C)O)cc2C(=O)N([C@H](C)CO)C[C@@H]1C	2	6[16.7 µM]
Cc1noc(C)c1S(=O)(=O)Nc1ccc2c(c1)C(=O)N([C@H](C)CO)C[C@@H](C)[C@@H](CN(C)C(=O)CCC(F)(F)F)OCCCC[C@H](C)O2	27	-7[16.7 µM]
CCNC(=O)C[C@H]1C=C[C@H](NC(=O)C2CCOCC2)[C@H](CO)O1	-18	2[16.7 µM]
COc1ccc(CN(C)C[C@H]2Oc3c(NS(=O)(=O)c4cccs4)cccc3C(=O)N([C@@H](C)CO)C[C@H]2C)cc1	3	16[16.7 µM]
COc1ccc(C#Cc2ccc3c(c2)[C@]2(C(=O)N3)[C@H](c3ccc(OCCO)cc3)N3[C@H](c4ccccc4)[C@H](c4ccccc4)OC(=O)[C@H]3[C@@H]2C(=O)NC[C@H](O)c2ccccc2)cc1	33	-10[16.7 µM]
COc1cccc(S(=O)(=O)N[C@H]2CC[C@H](CCn3cc(-c4ccccc4OC)nn3)O[C@H]2CO)c1	6	-32[16.7 µM]
O=C(Nc1ccc2c(c1)[C@@H]1C[C@H](CC(=O)N3CCc4ccccc4C3)O[C@H](CO)[C@@H]1O2)NC1CCCC1	-7	12[16.7 µM]
C[C@@H]1CN([C@@H](C)CO)C(=O)c2cc(/C=C/c3ccccc3)cnc2O[C@@H]1CN(C)C(=O)CN1CCOCC1	-6	0[16.7 µM]
C[C@@H]1CN([C@H](C)CO)S(=O)(=O)c2ccc(C#Cc3ccccc3)cc2O[C@@H]1CN(C)C(=O)Nc1ccccc1	-5	-8[16.7 µM]
C[C@H](CO)N1C[C@H](C)[C@@H](CN(C)Cc2ccc(C(=O)Nc3ccccc3N)cc2)Oc2ccc(NS(C)(=O)=O)cc2CC1=O	-8	11[16.7 µM]
C[C@H]1CCCCO[C@@H](CN(C)C)[C@@H](C)CN([C@@H](C)CO)C(=O)c2cc(NS(=O)(=O)c3cccs3)ccc2O1	11	15[16.7 µM]
C[C@@H]1CCCCO[C@H](CN(C)C(=O)Cc2ccccc2)[C@@H](C)CN([C@H](C)CO)C(=O)c2cc(NC(=O)NC3CCCCC3)ccc2O1	12	-22[16.7 µM]
COc1ccc(NC(=O)N(C)C[C@@H]2Oc3ccc(NC(=O)c4ccncc4)cc3C(=O)N([C@@H](C)CO)C[C@@H]2C)cc1	-15	0[16.7 µM]
C[C@@H]1CN([C@@H](C)CO)S(=O)(=O)c2ccc(Br)cc2O[C@@H]1CN(C)C(=O)CC1CC1	-7	8[16.7 µM]
C[C@@H]1CCCCO[C@@H](CN(C)S(=O)(=O)c2cccs2)[C@H](C)CN([C@@H](C)CO)C(=O)c2cc(N(C)C)ccc2O1	18	29[16.7 µM]
C[C@H]1CN([C@@H](C)CO)C(=O)Cc2cc(NC(=O)Nc3ccc(C(F)(F)F)cc3)ccc2O[C@H]1CN(C)C(=O)Nc1ccccc1	18	-8[16.7 µM]
O=C(C[C@@H]1C[C@@H]2c3cc(NS(=O)(=O)c4ccc(F)cc4)ccc3O[C@@H]2[C@@H](CO)O1)N1CCOCC1	-6	3[16.7 µM]
COC(=O)C[C@@H]1C[C@H]2c3cc(NC(=O)Nc4ccc(OC)cc4)ccc3O[C@H]2[C@@H](CO)O1	-12	-4[16.7 µM]
O=C(C[C@@H]1C=C[C@H](NC(=O)Nc2ccccc2)[C@H](CO)O1)NCc1ccccn1	-5	-3[16.7 µM]
C[C@@H]1CN([C@@H](C)CO)C(=O)c2cc(NC(=O)CCCN(C)C)ccc2O[C@@H](C)CCCCO[C@@H]1CN(C)S(C)(=O)=O	2	0[16.7 µM]
C[C@H]1CN([C@@H](C)CO)S(=O)(=O)c2ccc(C3=CCCC3)cc2O[C@@H]1CN(C)Cc1ccccc1	-5	18[16.7 µM]
C[C@@H]1CN([C@H](C)CO)C(=O)c2cc(Br)cnc2O[C@@H]1CN(C)Cc1ccc2c(c1)OCO2	-10	10[16.7 µM]
Cc1ccc(S(=O)(=O)Nc2ccc3c(c2)C(=O)N([C@H](C)CO)C[C@H](C)[C@@H](CN(C)Cc2ccc(C(F)(F)F)cc2)OCCCC[C@H](C)O3)cc1	7	-15[16.7 µM]
Cc1noc(C)c1NC(=O)Nc1ccc2c(c1)C(=O)N([C@H](C)CO)C[C@H](C)[C@@H](CN(C)C(=O)CCCN(C)C)OCCCC[C@@H](C)O2	-15	-13[16.7 µM]
C[C@H](CO)N1C[C@H](C)[C@@H](CN(C)C(=O)Cc2ccccc2)Oc2cc(-c3cncnc3)ccc2S1(=O)=O	9	-4[16.7 µM]
COCC(=O)N1[C@H](C#N)[C@H](c2ccc(C3=CCCC3)cc2)[C@H]1CO	5	-21[16.7 µM]
O=C(N[C@H]1CC[C@H](CCNS(=O)(=O)c2ccccc2)O[C@@H]1CO)c1cccc(F)c1	5	-6[16.7 µM]
C[C@@H]1CN([C@@H](C)CO)S(=O)(=O)c2ccc(C#CC(C)(C)O)cc2O[C@H]1CN(C)CC1CC1	17	14[16.7 µM]
CNC[C@H]1Oc2ccc(NC(=O)CCCN(C)C)cc2C(=O)N([C@H](C)CO)C[C@@H]1C	-13	0[16.7 µM]
COc1ccc(-c2ccc3c(c2)O[C@H](CN(C)C(=O)Nc2ccccc2F)[C@H](C)CN([C@H](C)CO)S3(=O)=O)cc1	-1	-12[16.7 µM]
CCNC(=O)C[C@H]1C=C[C@@H](NC(=O)C2CC2)[C@H](CO)O1	-2	-4[16.7 µM]
CS(=O)(=O)N1[C@H](C#N)[C@H](c2ccc(-c3ccccc3F)cc2)[C@@H]1CO	-14	12[16.7 µM]
CO[C@H]1CN(C)C(=O)c2ccc(NS(C)(=O)=O)cc2OC[C@@H](C)N(Cc2ccccc2)C[C@@H]1C	-9	20[16.7 µM]
O=C(C[C@H]1CC[C@@H](NC(=O)Nc2ccccc2)[C@H](CO)O1)NCc1cccc(F)c1	1	-245[16.7 µM]
COCC(=O)N(C)C[C@H]1Oc2ncc(C#Cc3ccccc3)cc2C(=O)N([C@H](C)CO)C[C@@H]1C	19	-6[16.7 µM]
C[C@@H]1CN([C@H](C)CO)S(=O)(=O)c2ccc(C#CCN(C)C)cc2O[C@@H]1CN(C)CC1CC1	67	-18[16.7 µM]
CC(C)NC(=O)NCC[C@@H]1CC[C@H](NS(=O)(=O)c2ccc(-c3ccccc3)cc2)[C@@H](CO)O1	4	1[16.7 µM]
CCNC(=O)Nc1ccc2c(c1)C(=O)N(C)[C@H]1CC[C@@H](CC(=O)NCC3CCCCC3)O[C@H]1CO2	8	-8[16.7 µM]
O=C(C[C@@H]1C[C@@H]2c3cc(NC(=O)NC4CCCCC4)ccc3O[C@@H]2[C@H](CO)O1)NCc1ccccn1	-20	-9[16.7 µM]
C[C@@H]1CN([C@H](C)CO)C(=O)c2cc(NS(=O)(=O)c3cn(C)cn3)ccc2O[C@@H](C)CCCCO[C@@H]1CN(C)S(=O)(=O)c1ccc(Cl)cc1	5	7[16.7 µM]
COc1ccc(CNC(=O)C[C@H]2CC[C@@H]3[C@H](COc4ccc(NC(C)=O)cc4C(=O)N3C)O2)cc1	-5	-5[16.7 µM]
COc1ccc(NC(=O)Nc2ccc3c(c2)C(=O)N([C@@H](C)CO)C[C@H](C)[C@H](CN(C)CC2CCCCC2)OCCCC[C@@H](C)O3)cc1	19	-37[16.7 µM]
COc1ccc(NC(=O)Nc2ccc3c(c2)CC(=O)N([C@@H](C)CO)C[C@H](C)[C@@H](CN(C)C(=O)Nc2ccc(OC)cc2)O3)cc1	5	-25[16.7 µM]
C[C@@H]1CCCCO[C@H](CN(C)S(=O)(=O)c2ccc(Cl)cc2)[C@@H](C)CN([C@@H](C)CO)C(=O)c2cc(NC(=O)c3ccncc3)ccc2O1	11	-6[16.7 µM]

Ordered by value in Yeast UUG start (highest first): some entries from above
SMILES	Yeast UUG start	Env fusion inh
C[C@@H]1CN([C@H](C)CO)S(=O)(=O)c2ccc(C#CCN(C)C)cc2O[C@@H]1CN(C)CC1CC1	67	-18[16.7 µM]
C[C@@H]1CN([C@@H](C)CO)C(=O)Cc2cc(NS(=O)(=O)c3ccc(Cl)cc3)ccc2O[C@H]1CN(C)C(=O)Nc1cccc2ccccc12	18	15[16.7 µM]
COc1cccc(S(=O)(=O)N[C@H]2CC[C@H](CCn3cc(-c4ccccc4OC)nn3)O[C@H]2CO)c1	6	-32[16.7 µM]
COc1ccc(NC(=O)Nc2ccc3c(c2)CC(=O)N([C@@H](C)CO)C[C@H](C)[C@@H](CN(C)C(=O)Nc2ccc(OC)cc2)O3)cc1	5	-25[16.7 µM]
C[C@@H]1CN([C@@H](C)CO)C(=O)c2cc(/C=C/c3ccccc3)cnc2O[C@@H]1CN(C)C(=O)CN1CCOCC1	-6	0[16.7 µM]
Cc1noc(C)c1NC(=O)Nc1ccc2c(c1)C(=O)N([C@H](C)CO)C[C@H](C)[C@@H](CN(C)C(=O)CCCN(C)C)OCCCC[C@@H](C)O2	-15	-13[16.7 µM]
O=C(C[C@@H]1C[C@@H]2c3cc(NC(=O)NC4CCCCC4)ccc3O[C@@H]2[C@H](CO)O1)NCc1ccccn1	-20	-9[16.7 µM]

Remaining list, next part
SMILES	Yeast UUG start	Env fusion inh
C[C@@H]1CN([C@@H](C)CO)S(=O)(=O)c2ccc(Br)cc2O[C@H]1CN(C)S(=O)(=O)c1ccc(F)cc1	3	11[16.7 µM]
CO[C@H]1CN(C)C(=O)c2cc(NC(=O)c3ccc4c(c3)OCO4)ccc2OC[C@H](C)NC[C@H]1C	4	5[16.7 µM]
COc1ccccc1S(=O)(=O)N[C@H]1CC[C@@H](CCNC(=O)C2CCCC2)O[C@H]1CO	-5	7[16.7 µM]
C/C=C/c1ccc2c(c1)O[C@@H](CN(C)C(=O)c1cccc(F)c1)[C@@H](C)CN([C@@H](C)CO)S2(=O)=O	-1	37[16.7 µM]
O=C(C[C@H]1C[C@H]2c3cc(NC(=O)Nc4ccccc4)ccc3O[C@H]2[C@@H](CO)O1)NC1CCCC1	0	?
C[C@H]1CN([C@@H](C)CO)C(=O)c2cc(/C=C/c3ccccc3)cnc2O[C@@H]1CN(C)C(=O)Cc1ccccn1	-9	0[16.7 µM]
Cc1noc(C)c1S(=O)(=O)Nc1ccc2c(c1)CC(=O)N([C@H](C)CO)C[C@@H](C)[C@@H](CN(C)Cc1ccc(Oc3ccccc3)cc1)O2	-1	12[16.7 µM]
O=C(C1=C[C@@H](c2csc3ccccc23)C[C@@H](OCCCCO)O1)N1CCCCCCC1	-4	3[16.7 µM]
C/C=C/c1cnc2c(c1)C(=O)N([C@H](C)CO)C[C@@H](C)[C@@H](CN(C)C(=O)NCCC)O2	-10	5[16.7 µM]
CCC(=O)N(C)C[C@@H]1Oc2cc(C#CCC3CCCC3)ccc2S(=O)(=O)N([C@@H](C)CO)C[C@@H]1C	16	4[16.7 µM]
C/C=C/c1ccc2c(c1)O[C@@H](CN(C)C(=O)NC1CCCC1)[C@@H](C)CN([C@@H](C)CO)S2(=O)=O	7	12[16.7 µM]
